Source: PubChem
NPYLR7 agonist: agonists of mosquito NPYLR7 receptor, primary screen, cell-based, Aedes aegypti, calcium fluorescence, mosquito biting behavior | HEK293T NPYLR7/Galpha15, GCaMP6s calcium fluorescence | activation, % at 10 µM | 0.15% of 270,000 active | AID 1259423, 2018; in the data active means activation above about 40%;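 further: 0% = vehicle and 100% = reference agonist at the receptor; some compounds past the cut are filed as inactive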
NPYLR7 agonist max-min: further read-out of NPYLR7 agonist, marked with its call; activation, %; measured here: Max-Min RFU normalised activation; some inactives read as strong as hits;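 span of the calcium signal over five minutes; 0% = vehicle and 100% = native peptide agonist; compound fluorescence can raise it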
* hit, by the source's call; & = joins results of further samples. The list is partial; the hit share may differ from the screen's.

SMILES | NPYLR7 agonist | NPYLR7 agonist max-min
O=C(NC1CC1)C1COC2(CCN(C(=O)c3ccc(F)cc3F)CC2)N1C(=O)c1ccccc1 (centres undefined) | 1 | 11
COc1ccccc1N1CCN(c2ccc(NC(=O)c3ccc(Br)cc3)cc2C(=O)NCCCN2CCOCC2)CC1 | 11 | 10
Cc1noc(C)c1CS(=O)Cc1nc(CC(C)C)no1 (centres undefined) | -3 | -2
CCN(CC(O)c1cccc(O)c1)C(=O)C12CC3CC(CC(C3)C1)C2 (centres undefined) | 7 | 4
O=C(c1cc(-c2ccc(F)cc2)nc2ccccc12)N1CCN(c2ccccc2Cl)CC1 | -11 | -18
COC(C(=O)NCc1ccccc1C)c1ccccc1 (centres undefined) | -2 | -3
O=C(NCC1(c2ccccc2)CC1)C1CCN(c2ccc(Cl)cn2)CC1 | 11 | 11
C=CCOc1c(OC)ccc2c1CN(Cc1ccco1)C(=O)CCN2CC(O)CC(F)(F)F (centres undefined) | -2 | 9
CC1CCCN(c2cc(C(=O)NC(Cc3ccccc3)c3ccccc3)c3ccccc3n2)C1 (centres undefined) | 26 | 32
CCCCCNCc1cnc(SC)nc1N1CCCC(C)C1 (centres undefined) | 14 | 17

Among those listed so far, two contain a Cl atom:
SMILES | NPYLR7 agonist | NPYLR7 agonist max-min
O=C(c1cc(-c2ccc(F)cc2)nc2ccccc12)N1CCN(c2ccccc2Cl)CC1 | -11 | -18
O=C(NCC1(c2ccccc2)CC1)C1CCN(c2ccc(Cl)cn2)CC1 | 11 | 11

Next section:
SMILES | NPYLR7 agonist | NPYLR7 agonist max-min
Cc1[nH]c2c(F)cccc2c1CC(=O)NCCSc1nnnn1C | 7 | -3
CCc1nc(NC(=O)c2cccs2)sc1C | 5 | 2
CN(C(=O)C1=Cc2cc(Br)ccc2OC1)C1CCS(=O)(=O)C1 (centres undefined) | 1 | 1
O=S(=O)(c1ccc(Cl)s1)N(Cc1cccs1)Cc1cccs1 | 9 | 10
CCN1CCN(c2ncnc3sc4c(c23)CCCCC4)CC1 | 4 | 6
Cn1ccn2ncc(C(=O)NCCCc3nc4ccc(F)cc4[nH]3)c12 | 18 | 10
CCOc1ccc2cc(-c3nc4ccccc4s3)c(=O)oc2c1 | 0 | -6
COc1cc(-c2nc3ccc(Br)cn3c2NC2CCCCC2)ccc1OC(=O)c1ccc(C)cc1 | 5 | 4
COCCn1c(C)cc(/C=N\NC(=O)c2ccc(Cn3nnc(-c4ccccc4)n3)cc2)c1C | 10 | 13
O=C(c1cc2n(n1)C(C(F)(F)F)CC(c1cccs1)N2)N(Cc1ccccc1)Cc1ccccc1 (centres undefined) | 5 | 2
CC(C)C1CN(C(=O)CCn2cncn2)c2ccccc2N1 (centres undefined) | 6 | 3
C[C@@H](NC(=O)CN1Cc2ccc(Nc3cccc(F)c3)nc2C1=O)c1ccccc1 | 9 | 4
COCCN(CC(=O)N(Cc1ccc2c(c1)OCO2)Cc1ccc(C)o1)C(=O)Nc1ccccc1C | -4 | 2
CC1(C)C2(C(=O)N3CCC(n4c(=O)oc5ccc(F)cc54)CC3)CC[C@@]1(C)C(=O)O2 | 22 | 30
Cc1cc(NC(=O)Cn2nc(C)c3cnn(-c4ccccc4)c3c2=O)no1 | 3 | -1
O=C1CCC([N+](=O)[O-])C(c2cccc(OCc3ccccc3)c2)N1 (centres undefined) | -11 | -17
CN1CCN(C(=O)c2cccc(Nc3c(Oc4cccc(C(F)(F)F)c4)cnn(C)c3=O)c2)CC1 | 3 | 5
CS(=O)(=O)N1CCC(c2nn(CC(=O)N3CCc4ccccc43)c(=O)n2-c2cccs2)CC1 | -6 | -4
COCCNC(=O)c1cc(NC(=O)Nc2ccccc2Br)ccc1N1CCCC1 | -1 | 2
O=C(O)c1cccc(CC2CCN(Cc3ncc[nH]3)C2)c1 (centres undefined) | 7 | -5

Among those listed so far, two have an aryl thioether with sulfur outside any ring:
SMILES | NPYLR7 agonist | NPYLR7 agonist max-min
CCCCCNCc1cnc(SC)nc1N1CCCC(C)C1 (centres undefined) | 14 | 17
Cc1[nH]c2c(F)cccc2c1CC(=O)NCCSc1nnnn1C | 7 | -3

Further structures
SMILES | NPYLR7 agonist | NPYLR7 agonist max-min
O=C(COC(=O)C1COc2ccccc2C1)NC1(c2ccccc2)CCC1 (centres undefined) | 0 | -2
Cc1nc(SC(C(=O)NC(N)=O)C(C)C)n(C2CCCC2)c1C (centres undefined) | 4 | 5
O[C@@H]1C[C@H]2CN(C3CCN(Cc4ccccc4)CC3)C[C@H]2C[C@@H]1O | 15 | 6
COc1cccc(C2Nc3ccc(C(=O)c4ccccc4)cc3N=C3CCCC(=O)C32)c1 (centres undefined) | -10 | -11
CC(C)COc1cccc(OCC(=O)NC(C)C(=O)O)c1 (centres undefined) | -6 | -11
CCOc1ccccc1C(=O)Nc1ccc(N2CCN(C(=O)Cc3cccc(OC)c3)CC2)nc1 | 4 | 2
Cc1ccc(-c2nc(C=Nc3cc(Cl)c(Cl)cc3Cl)c(O)o2)cc1 | -1 | -6
CC(=O)NCCc1cn(-c2cccc(OC(C)C)c2)cn1 | 1 | 5
CCCCCCCCCC(=O)Nc1ccc(N2CCC(C)CC2)c(C(=O)NCCN2CCOCC2)c1 | -2 | 0
CC(=O)N1CCC[C@H]1C(=O)N(Cc1ccco1)Cc1cccs1 | 7 | 4
CSc1nc2ncc(C(O)C(O)CO)nc2c(=O)[nH]1 (centres undefined) | 3 | 1
COc1ccc2[nH]c3c(c2c1)CCOC31CCN(C(=O)NC(C)C)CC1 | 16 | 15
NCC1CN(C(=O)C(=O)NC2CCCC2)CCO1 (centres undefined) | 1 | -11
COc1ccc(-c2cc(C(=O)NCc3ccccn3)c3ccccc3n2)cc1OC | -11 | -17
O=C1N(Cc2ccc(C(F)(F)F)nc2)c2cc3c(cc2OC1(F)F)CCCC3 | 5 | 1
O=C(NCc1ccco1)c1cc(=O)[nH]c2ccc(S(=O)(=O)N3CCCCCC3)cc12 | -3 | -5
Cc1cccc(-n2c(-c3snnc3-c3ccccc3)n[nH]c2=S)c1 | -2 | -4
O=C1Nc2ccccc2SC1CC(=O)N1CCC(CCc2ccccc2)CC1 (centres undefined) | 6 | 2
CCc1cc(CN2C[C@@H](C(=O)O)C[C@@H](C(=O)N3CCCC3)C2)[nH]n1 | 6 | 4
Cc1cc(C)cc(COC(=O)CCc2ccc(S(N)(=O)=O)cc2)c1 | 11 | 4

Single records, as listed above:
CCN1CCN(c2ncnc3sc4c(c23)CCCCC4)CC1 as listed: NPYLR7 agonist = 4; NPYLR7 agonist max-min = 6
O=C(O)c1cccc(CC2CCN(Cc3ncc[nH]3)C2)c1 (centres undefined) as listed: NPYLR7 agonist = 7; NPYLR7 agonist max-min = -5

Next part.
SMILES | NPYLR7 agonist | NPYLR7 agonist max-min
Cc1sc2ncn(CC(=O)N3CCCC(C)C3)c(=O)c2c1C (centres undefined) | 2 | -4
COc1ccc2c(c1)CN(Cc1nc3cc(F)ccc3o1)CC2 | 5 | 2
O=C1NCC2(CCCN(c3cnc4ccccc4n3)CC2)O1 (centres undefined) | 4 | 2
Cc1cc(C)c2nccc(N)c2c1 | 2 | 2
CCc1cc2c(=O)n(CCCOC)c(SCC(=O)N(C)Cc3ccc(C)cc3)nc2s1 | 1 | 5
CC(=O)c1c(C)[nH]c(=O)[nH]c1=S | 0 | -2
O=C(NCc1ccccc1-n1ccnc1)c1cnn2cccnc12 | 6 | 5
CC(C)NC(=O)N1CCC(C(NS(=O)(=O)c2ccccc2)C(=O)NCc2ccc(F)cc2)CC1 (centres undefined) | -2 | -1
COc1ccc(CC(=O)Nc2cc(C)nn2-c2nc(C)cc(=O)[nH]2)cc1 | 8 | 3
CCOC(=O)C1CCN(C(c2ccc(F)cc2)C2Sc3nc(CC)nn3C2=O)CC1 (centres undefined) | -1 | 9
O=C(/C=C/c1ccccc1)N1CCCN(c2cc(Oc3ccc(F)c(Cl)c3)ncn2)CC1 | 10 | 6
CCc1ccc(/C=C2\C(=O)NN(c3ccc(Cl)c(Cl)c3)C2=O)cc1 | 6 | 5
COc1c(O)cc2c(=O)oc3c(OC)c(O)cc4c(=O)oc1c2c34 | 4 | 2
Cc1c(C(=O)N2CCN(C(=O)C3CCS(=O)(=O)C3)CC2)[nH]c2c1C(=O)CC(C)(C)C2 (centres undefined) | 7 | 6
CCCNC(=O)Cn1nc2c(c1NC(=O)c1cc(-c3ccccc3)on1)CSC2 | -4 | 2
CCCN(CC1=CCCN(C)C1)C(=O)C1CCCC1 | 3 | 1
CC(=O)Nc1ccc(Cl)c(C(=O)NCCN2CCCOC2=O)c1 | 25 | 15
O=C(N/N=c1/oc2ccccc2cc1-c1nc2ccccc2[nH]1)c1cccc(F)c1 | -4 | -10
CC(C)(C)c1ccc(CSc2ncccc2C(=O)N2CCC(Cc3ccccc3)CC2)cc1 | 2 | 0
COc1cc(OC)cc(C(=O)NCCC(=O)Nc2nnc(-c3cccc(C)c3)s2)c1 | -13 | -7
Cc1ccc(C(=O)N2CCN(C(=O)c3cn(C)cc4c(=O)n(-c5ccccc5)nc3-4)CC2)cc1 | 0 | -1
COc1ccc(Cl)c2sc(N(CCN(C)C)C(=O)c3ccc([N+](=O)[O-])cc3)nc12 | 0 | -1
CCOC(=O)c1nc2ccccc2nc1N1CCCN(C(=O)COCCOC)CC1 | 6 | 3
CN(C(=O)Nc1cc(C(N)=O)ccc1N1CCCCC1)C1CCc2ccccc21 (centres undefined) | 12 | 11
CN(C)S(=O)(=O)c1cccc(NC(=S)Nc2ccc3c(c2)OCO3)c1 | 2 | 0
NC(=O)CCn1cc(-c2[nH]cnc2-c2ccccc2)c2ccccc21 | 2 | 1
CCCCCCCCCC(=O)Nc1ccc(N2CCCC2)c(C(=O)NC(C)C)c1 | 0 | 9
O=C1CC(N2CCOCC2)C(=O)N1c1ccc(F)cc1 (centres undefined) | -1 | -3
CC1CC(C)CN(C(=O)COc2ccc(C(N)=O)cc2)C1 (centres undefined) | 5&2 | 1&0
O=c1cc(CN2CCSc3ccc(C(F)(F)F)cc32)nc2ccccn12 | 10 | 5
COc1ccc(-c2cc(C(=O)N3CCN(c4ccccc4OC)CC3)c(C)n2-c2ccc(F)cc2F)cc1 | -4 | 5
CCOc1ccc2nc(SC(C)C(=O)N3CCN(CC)CC3)[nH]c2c1 (centres undefined) | 8 | 8
Cc1ccc(C)c(OC(C)C(=O)NCCNS(C)(=O)=O)c1 (centres undefined) | 3 | 1
CCc1nc2n(n1)CCCC2NC(=O)C(C)Oc1cccc(C(C)C)c1 (centres undefined) | -1 | 47
C=CCn1c(CSc2nc3sc4c(c3c(=O)[nH]2)CCCC4)n[nH]c1=S | 1 | 7
O=C1Nc2cc(Cl)ccc2C1(O)C(F)(F)F (centres undefined) | 3 | 8
Cc1nc2ncccn2c1C(=O)N1CCCC2(CC1)CN(C)C(=O)O2 (centres undefined) | 9 | 4
CCc1nn(C(CC)C(=O)NC2CCCC2)c(=O)c2cc3oc(C)cc3n12 (centres undefined) | 2 | 2
COCCCN(Cc1ccc(C(O)(c2cccs2)c2cccs2)o1)Cc1ccccc1OC | 15 | 14
O=C(CSc1nc2ccccc2n1Cc1ccccc1)N=Nc1c(O)[nH]c2ccccc12 | -16 | -21
COc1ccccc1CN(C)CCC(=O)Nc1ccnn1C1CCCC1 | -1 | -1
C=CCN(CC=C)C(=O)CN1C(=O)NC2(CCC(CC)CC2)C1=O (centres undefined) | -2 | -5
COc1ccc(N(CC(=O)N2CCCCCC2)S(=O)(=O)c2ccccc2[N+](=O)[O-])c(OC)c1 | 0 | 2
COC(=O)C(NC1CSCCSC1)c1cccc(C)c1 (centres undefined) | 4 | 8
C=CCOCC(O)CN(Cc1cccc(OC)c1)Cc1ccco1 (centres undefined) | 25 | 29
CN(CC1COc2ccccc2O1)C(=O)c1cn(Cc2ccccc2Cl)nn1 (centres undefined) | 14 | 6
Cc1c(C(=O)NCCCN2CCOCC2)cnc2c(-c3ccc(F)cc3)cnn12 | 18 | 11
COc1ccc(C)cc1NC(=O)c1c(C)c(C)c(C)n1Cc1cccc(F)c1 | -3 | 4
COc1ccccc1-n1c(CNC(=O)c2ccc(-c3ccccc3)cc2)nnc1SCC(=O)Nc1nnc(C)s1 | -6 | 1
COc1ccc(C(C)=O)c(O)c1 | -9 | -16

Brought forward from above: 2 compounds, followed by the next part.
SMILES | NPYLR7 agonist | NPYLR7 agonist max-min
COc1ccccc1-n1c(CNC(=O)c2ccc(-c3ccccc3)cc2)nnc1SCC(=O)Nc1nnc(C)s1 | -6 | 1
COc1ccc(C(C)=O)c(O)c1 | -9 | -16
Cc1cc(C)nc(NC(=O)CN2CCN(c3ccc(C(C)C)cc3)C2=O)n1 | -3 | -6
Cc1nccn1-c1cc(NCCNC(=O)c2cccc(C(F)(F)F)c2)ncn1 | -16 | -23
O=C(NCCS(=O)(=O)N1CCCC1)c1cccc(Cn2cccn2)c1 | 3 | -7
Cc1ncsc1C(=O)Nc1ccccc1S(=O)(=O)C(C)C | 7 | 8
NC(=O)CSc1cn(CCNC(=O)c2ccccc2F)c2ccccc12 | -1 | 1
C#CCn1c(=NC(=O)c2ccc(S(C)(=O)=O)cc2)sc2cccc(F)c21 | 8 | 5
CC(C)CCN1CCN(c2nc3c(c(=O)[nH]c(=O)n3C)n2Cc2cccc3ccccc23)CC1 | 7 | 7
CC1CN(c2cc(Oc3cccc(Cl)c3)ncn2)CCN1C(=O)/C=C/c1ccccc1 (centres undefined) | 7 | 6
CC(C)N(C(=O)COC(=O)C12CC3CC(CC(Br)(C3)C1)C2)C(C)C | 5 | 2
COC(=O)C1(C(=O)NCCc2cn(Cc3ccccn3)c3ccccc23)CC1 | -7 | -12
c1csc(-c2nccn2Cc2ccc3nsnc3c2)c1 | 1 | -3
O=C(c1ccccc1Cl)N1CCCC(N2CCN(c3ccccc3F)CC2)C1 (centres undefined) | 1 | -3
